Calb FLC: affects C. albicans growth with fluconazole | C. albicans CaCi-2 (fluconazole-resistant clinical isolate) + fluconazole, Alamar Blue growth, 48 h | 300,000 compounds, 0.57% hits | growth inhibition, % (concentration not given with the values) | AID 1979;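 active = most replicates above 75%; inconclusive = exactly half above 75%; inactive = most below 75%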;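 note: all wells also contain fluconazole at 8 µg/ml as a sub-toxic cotreatment; 0% = median of DMSO wells and 100% = median of geldanamycin control wells; wells of about 8 µL received 7.5 nL stock; the first replicate is given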
Beta apoptosis: beta cell apoptosis inhibition; AID 435005; 300,000 compounds, 0.8% hits; protection from apoptosis, % (test concentration not listed); INS-1E cytokine-induced death, ATP luminescence, 48 h; percent of positive-control rescue, neutral wells zero;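 active = all replicates at 75% or more, or half of them and the mean; inconclusive = half reach 75% but not the mean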;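 note: 0% = cytokine-treated negative control wells and 100% = positive control rescue; higher means more ATP so stronger rescue from cytokine killing; wells of about 40 µL received 100 nL stock; the first replicate is given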
T cruzi inh: T. cruzi replication inhibition; T. cruzi beta-gal in NIH3T3, luminescence, 90 h; inhibition, % (concentration not given with the values); 300,000 compounds, 1.4% hits; AID 1885;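 active = mean inhibition across valid replicates above about 55%, limit read from the data; inconclusive = mean below that limit but half or more replicates reach it; inactive = mean below it, under half of replicates reach it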;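 note: signal also drops with host cell toxicity which is not excluded here; 0% = plate median of DMSO wells and 100% = zero luminescence signal; higher percent means less beta-gal luminescence so fewer parasites; stock transfer was 50 nL into about 50 µL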
AF4-AF9 inh: blocks AF4 peptide binding to human AF9. P42568. AlphaScreen, biotin-AF4 peptide binding to FLAG-AF9. inhibition, % at 10 µM. 350,000 compounds, 0.47% hits;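 active = every replicate reaching a set inhibition limit, whatever the replicate mean, cut at about 25% in these data; inconclusive = mean inhibition reaches that limit but some replicates miss it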;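 note: 0% = plate neutral control median and 100% = total signal loss; the record names both 10 and 1 µM as test concentration; the first replicate is given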
Target sequence (P42568 whole entry, looked up): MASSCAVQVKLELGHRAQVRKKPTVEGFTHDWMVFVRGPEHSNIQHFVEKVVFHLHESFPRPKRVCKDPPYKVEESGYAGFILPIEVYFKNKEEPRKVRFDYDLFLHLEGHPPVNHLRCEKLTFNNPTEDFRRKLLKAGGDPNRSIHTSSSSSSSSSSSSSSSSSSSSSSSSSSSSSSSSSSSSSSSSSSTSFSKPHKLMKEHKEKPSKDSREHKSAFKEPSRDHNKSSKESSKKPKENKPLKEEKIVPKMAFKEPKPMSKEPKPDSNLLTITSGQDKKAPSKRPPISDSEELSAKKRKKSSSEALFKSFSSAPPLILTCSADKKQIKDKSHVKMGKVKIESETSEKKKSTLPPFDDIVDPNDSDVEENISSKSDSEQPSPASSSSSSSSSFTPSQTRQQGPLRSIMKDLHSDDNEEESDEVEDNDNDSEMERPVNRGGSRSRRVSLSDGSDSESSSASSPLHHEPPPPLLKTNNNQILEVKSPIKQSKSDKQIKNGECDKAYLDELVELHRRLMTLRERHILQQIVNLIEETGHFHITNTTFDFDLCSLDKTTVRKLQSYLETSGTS
Ecoli rRNA inh: inhibitors of bacterial rRNA selective over humanized ribosomes. E. coli WT GFP vs humanized-ribosome RFP mutants, fluorescence, 24 h; active compounds read low; DMSO median 0, no signal -100. GFP signal change (wild-type ribosome), % (no concentration beside the values). 350,000 compounds, 1.6% hits;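 active = significant combined selectivity score with lowered wild-type GFP, culture density cut under 30%, mutant RFP and density less affected; inactive = any of these conditions unmet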; note: one replicate is shown; some compounds called inactive have numbers as strong as hits
Vif A3G: HIV-1 Vif–A3G interaction blockers – biochemical, TR-FRET, GST-Vif 1-94, biotin-A3G peptide, dose response retest, primary screen (AID 1117319); TR-FRET GST-Vif / biotin-A3G peptide binding; higher % means a stronger effect; test concentration not given here; strong numbers were not always called active; inhibition, %; hits with a dose series show IC50 in µM; 260,000 compounds, 0.57% hits;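 active = above the screen mean plus three standard deviations and confirmed in dose response; inconclusive = results disagree or hit not tested in dose response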;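 note: Vif residues 1-94 fused to GST binding biotinylated APOBEC3G peptide 110-148; 0% = full assay without inhibitor and 100% = GST in place of GST-Vif; retest series ran down from 100 µM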
A1 inh: inhibitors of the anti-apoptotic protein A1, read as caspase activation; MEF A1-2A-BIM cells, Caspase-Glo 3/7 luminescence, 3 h; percent of clofoctol response, vehicle zero; caspase activation, % (concentration not given with the values); AID 2462; 330,000 compounds, 0.066% hits;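 active = over half of replicate activation scores above 10%, or exactly half above 10 with the replicate mean above 10; inconclusive = replicate mean below 10 yet half the replicates above 10; inactive = over half of replicates below 10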;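 note: wells of about 30 µL received 50 nL stock; many hits fall short of the cut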
RanGTP-Impb inh: disruptors of Ran-importin-beta complex formation – biochemical, FRET, CFP-Ran, YFP-importin-beta, homogeneous, primary screen. inhibition, % (test concentration not listed). 300,000 compounds, 1.1% hits. cell-free CFP-Ran/YFP-importin-beta FRET ratio;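 active = most replicates above 15%; inconclusive = exactly half above 15%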;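 note: 0% = DMSO wells and 100% = Ran loaded with GDP instead of GTP; wells of about 40 µL received 100 nL stock; the first replicate is given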
Ecoli rRNA inh OD600: also measured in Ecoli rRNA inh; calls as there; OD600 change, %; measured here: OD600 growth;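 optical density of the mix in the first replicate; 0 = DMSO median and -100 = no signal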
Ecoli rRNA inh RFP: also measured in Ecoli rRNA inh; calls as there; RFP signal change, %; measured here: RFP humanized mutant strains;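 first replicate; 0 = DMSO median and -100 = no signal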
Active calls of the source: *; ? = inconclusive; . = no result given.

SMILES	Calb FLC	Beta apoptosis	T cruzi inh	AF4-AF9 inh	Ecoli rRNA inh	Ecoli rRNA inh OD600	Ecoli rRNA inh RFP	Vif A3G	A1 inh	RanGTP-Impb inh
O=C(CN1CC(=O)Oc2ccccc21)OCC(=O)c1ccc(Br)cc1	0	-20	-43	.	.	.	.	.	-0.8	-2.5
Cc1cc(C(=O)Nc2ccc(CC(=O)O)cc2)c(C)o1	-5	-1	7	1.0	2	9	-3.3	.	-1.0	2.6
CC(=O)N/N=C(/c1ccccc1)C(O)c1ccccc1 (centres undefined)	-4	-5	-7	0.1	4	9	-3.0	9%	1.3	-4.9
COc1cccc2cc(C(=O)OC3CCN(C)CC3)c(=O)oc12	-7	-2	-7	-2.9	8	6	0.2	14%	-0.8	-2.5
COC(=O)c1cc(S(=O)(=O)NCC2CCN(Cc3ccc(Cl)cc3)CC2)cn1C	8	.	23	5.6	3	3	0.8	-1%	-0.1	3.8
COCCNC(=O)Cn1cc(C(=O)c2ccco2)c2ccccc21	14	2	-12	-2.2	-8	-3	-0.5	-10%	0.2	-0.1
O=C(NC1CCCCC1)c1ccc(S(=O)(=O)c2ccccc2)cc1	-7	1	-26	-2.1	-6	-8	-0.6	-2%	-0.9	-0.6
O=C(c1cc(N2C(=O)C3C4CCC(C4)C3C2=O)ccc1Cl)N1CCN(c2ccc(F)cc2)CC1 (centres undefined)	-9	2	22	.	.	.	.	.	0.6	-2.9
CC(NC(=O)c1cc(COc2cccc(C(F)(F)F)c2)on1)c1nccs1 (centres undefined)	5	-3	4	-4.2	-19	-20	-5.0	-3%	-0.7	-1.3
CC(=O)N[C@H]1C(O)O[C@H](CO)[C@@H](O)[C@@H]1O (some centres undefined)	0	5	-2	-1.6	.	.	.	.	1.6	4.2
CCCc1cc(=O)n2[nH]c(C)cc2n1	?	-3	-15	.	.	.	.	?	-0.3	-1.5
Cc1ccc(CCNC(=O)C2CCCN(S(=O)(=O)c3c(C)noc3C)C2)cc1 (centres undefined)	-5	0	3	.	.	.	.	1%	-0.7	-2.6
CSc1ccccc1NC(=O)c1ccoc1C	3	-5	-3	.	.	.	.	2%	-0.5	4.1
O=C(CNC(=O)c1ccco1)OCN1C(=O)c2ccccc2C1=O	-4	-5	-6	.	.	.	.	-5%	0.6	-1.3
COc1ccc2c(ccc[n+]2CC(=O)c2ccc(C)cc2)c1	-4	6	32	1.4	10	1	0.7	.	0.2	2.0
COc1ccccc1C(=O)C1CCCN(Cc2ccc3c(c2)OCCO3)C1 (centres undefined)	-6	-5	46	3.5	1	-7	-1.5	66%	-1.0	4.9
O=C(Cc1c[nH]c2ccccc12)NCc1ccc(Cl)cc1Cl	?	-2	7	-6.4	-41	-42	-11	23%	0.4	-3.8
Cc1ccccc1N1CCN(C2CCCN(C(=O)c3noc4c3CCCC4)C2)CC1 (centres undefined)	-16	2	13	5.9	-32	-32	-2.0	-5%	0.6	0.6
COC(=O)CNc1nc(C2CC2)nc2c1nnn2Cc1ccccc1Cl	10	1	20	.	.	.	.	20%	0.4	3.1
CCOC(=O)Cc1nc2nc(C)cc(C)n2n1	-4	2	-10	-1.9	13	10	2.4	-4%	0.5	-0.3
O=C(Cn1c(=S)nc2ccccn21)N1CCc2ccccc2C1	6	4	3	.	.	.	.	-3%	-0.2	4.4
CN(CC(=O)Nc1ccc(Cl)cc1)C(=O)c1cc(-c2cccs2)nn1-c1ccccc1	13	.	18	-1.1	-2	-12	0.0	-37%	1.0	1.0
Cc1cc(C)n(CCCN2CCC(C(=O)Nc3cccc(-c4cccc(F)c4)c3)CC2)n1	-3	-7	10	9.4	-55	-84	-17	.	0.8	-0.3
COc1ccc(N=C2NC(=O)C(CC(=O)NCCc3ccc(OC)c(OC)c3)S2)cc1 (centres undefined)	-10	-6	7	-0.7	8	15	-0.2	3%	0.1	-0.9
Cc1ccc(C)c(Cn2c(O)c(N=NC(=S)Nc3ccccc3F)c3ccccc32)c1	-2	42	67*	-2.5	19	10	0.3	1%	1.1	3.3
CN(C(=O)CSc1nc(N)c2c3c(sc2n1)CSC(C)(C)C3)c1ccccc1	-4	0	6	.	.	.	.	.	-0.1	-0.7
COc1ccc(-n2c(C)nnc2SCC(=O)Nc2ccccc2F)cc1	-3	-14	-14	0.7	2	8	1.8	.	-0.1	2.9
COc1cccc(NC(=O)Cc2c(O)c3ccccc3[nH]c2=O)c1	4	-1	-1	.	.	.	.	0%	0.1	1.7
CC(=O)CSc1nnc(-c2ccc(S(=O)(=O)N3CCCC3)cc2)n1C	-11	-4	2	2.0	1	9	-2.8	.	-0.7	4.1
Cc1cccc(N2CCN(Cc3ccc(Br)o3)CC2)c1C	-4	1	-7	5.4	-24	-33	-5.4	.	0.1	-1.9
NC(=S)NNc1ccnc2cc(Cl)ccc12	4	-10	-6	14	3	-4	-7.3	23%	0.0	?
O=C1CC(C(=O)Nc2ccc(Cl)cc2[N+](=O)[O-])C2(CCCCC2)O1 (centres undefined)	0	-5	-15	-1.7	8	8	0.8	1%	-0.4	1.4
CCOC(=O)Cc1csc(NC(=O)C(C)(C)C)n1	-4	-3	-16	.	.	.	.	2%	0.3	4.0
Cc1ccc(/C=C2\SC(=S)N(CCCC(=O)Nc3ccccn3)C2=O)cc1	-4	-10	3	.	.	.	.	12%	-0.4	0.0
Cc1cc(C)nc(SCc2nnc(SCC(=O)NCc3ccco3)n2-c2ccccc2)n1	-1	-3	6	.	.	.	.	7%	0.6	-3.0
FC(F)(F)c1nc(-c2ccccc2)ncc1-c1nnnn1-c1ccccc1	-2	22	16	-7.0	5	-24	-1.1	0%	0.5	0.0

Record cards, from the list above.
Entry for Cc1cc(C)nc(SCc2nnc(SCC(=O)NCc3ccco3)n2-c2ccccc2)n1 = Calb FLC: -1; Beta apoptosis: -3; T cruzi inh: 6; AF4-AF9 inh: .; Ecoli rRNA inh: .; Ecoli rRNA inh OD600: .; Ecoli rRNA inh RFP: .; Vif A3G: 7%; A1 inh: 0.6; RanGTP-Impb inh: -3.0
Entry for NC(=S)NNc1ccnc2cc(Cl)ccc12 = Calb FLC: 4; Beta apoptosis: -10; T cruzi inh: -6; AF4-AF9 inh: 14; Ecoli rRNA inh: 3; Ecoli rRNA inh OD600: -4; Ecoli rRNA inh RFP: -7.3; Vif A3G: 23%; A1 inh: 0.0; RanGTP-Impb inh: ?

Carrying on.
SMILES	Calb FLC	Beta apoptosis	T cruzi inh	AF4-AF9 inh	Ecoli rRNA inh	Ecoli rRNA inh OD600	Ecoli rRNA inh RFP	Vif A3G	A1 inh	RanGTP-Impb inh
O=c1[nH]c(CSc2ccccn2)nc2ccccc12	-5	-3	-7	1.0	5	-3	0.0	1%	-7.6	0.1
Cc1cccc(Nc2ncnc3onc(-c4ccc(F)cc4)c23)c1C	18	5	-15	2.9	-23	-3	-16	.	0.0	-6.0
O=[N+]([O-])c1cccnc1Sc1ccc(F)cc1	-6	.	-17	-4.8	5	3	2.3	.	0.6	-1.9
Cc1nc(N2CCC(C)CC2)c2c(C)c(C(=O)O)sc2n1	-5	6	11	.	.	.	.	-8%	-0.2	-0.2
CCOC(=O)c1c(NC(=O)C2C3C=CC(C3)C2C(=O)O)sc2c1CCCC2 (centres undefined)	37	-7	-5	-2.6	-28	-40	-5.0	.	4.1	0.7
CN(C)C=NC(=O)c1cccn1-c1ncc(C(F)(F)F)cc1Cl	16	-6	-2	-0.4	6	-1	-2.3	.	-0.2	-0.1
CC(C)C[C@H](NC(=O)OC(C)(C)C)C(=O)N1CCC(C(=O)O)CC1	-3	-5	-2	.	.	.	.	-2%	-0.1	2.0
COC(=O)c1ccccc1NC(=O)NC1CC1	16	-2	-9	-0.4	13	0	1.7	.	0.1	-4.6
COc1cc(-c2cc(C(=O)Nc3ccccc3N3CCOCC3)c3ccccc3n2)cc(OC)c1OC	-4	14	42	9.6	-4	-4	1.6	-7%	-0.2	0.5
CC1CCCCN1C(=O)c1cc2nc(-c3ccccc3)cc(-c3ccccc3)n2n1 (centres undefined)	-5	12	25	.	.	.	.	-4%	-0.3	2.7
O=C(CCCc1ccccc1)N1CCN(c2ccc([N+](=O)[O-])cc2)CC1	-53	11	2	.	.	.	.	68%	?	0.0
COc1cccc2cc(C(=O)NCCc3ccccc3)oc12	2	5	1	-3.4	-24	-28	-4.7	.	-0.8	-2.6
C/C(=N\Nc1ccc([N+](=O)[O-])cc1[N+](=O)[O-])c1cccnc1	-25	6	-15	0.9	9	17	-1.9	3%	0.2	1.8
CC(C)c1cc(C(=O)N/N=C/c2ccoc2)c(O)c(C(C)C)c1	-2	-1	2	-2.0	-4	-14	3.3	.	0.5	-1.4
COC(=O)c1ccc(C)c(NC(=O)c2ccc(Cn3cc([N+](=O)[O-])cn3)o2)c1	-7	1	2	-8.5	-16	-16	-12	-7%	-0.2	?
O=C(Oc1ccc(-c2nnco2)cc1)C1CCN(C(=O)c2ccc(F)cc2)CC1	5	2	-7	-8.9	3	8	-0.1	.	-0.3	1.5
CCn1c(-c2ccc(C(C)(C)C)cc2)n[nH]c1=S	-5	-2	2	.	.	.	.	32%	0.5	0.4
COc1ccc(/C=C\C(=O)NCc2ccc3c(c2)cc(C)n3C)cc1OC	18	6	49	6.3	0	6	34	.	.	0.3
COc1cc2c(cc1NC(=O)Nc1cccc(C)c1)oc1ccccc12	-29	9	34	.	.	.	.	-2%	-0.8	-2.6
NC(=O)c1ccc(-n2nnnc2SCc2ccc(F)cc2)cc1	3	-2	-2	.	.	.	.	0%	-0.3	8.7
COC(=O)c1ccc(-n2c(C)cc(/C=N/Nc3nc(C)cc(=O)[nH]3)c2C)cc1	0	-4	-4	2.6	5	-1	2.6	.	-0.4	3.6
CC(C)(C)C(=O)C(Cc1ccccc1Cl)n1cncn1 (centres undefined)	-19	-3	4	.	.	.	.	?	0.8	4.3
CCOc1cccc(C2/C(=C(/O)c3ccc4c(c3)CC(C)O4)C(=O)C(=O)N2CCN2CCOCC2)c1 (centres undefined)	-1	-6	-8	3.3	3	5	1.0	.	-0.9	1.9
COC(=O)[C@@H]1CCCN1Cc1c(C(=O)N2CCOCC2)nc2c(C)cccn12	-2	1	-5	-1.8	5	1	2.5	6%	0.5	-1.9
CCn1c(=O)cc(OCC(=O)N2CCCCCC2)c2ccccc21	0	0	-2	.	.	.	.	-5%	0.1	0.4
COCC(=O)N(C)C[C@H]1N[C@@](Cc2ccccc2)(C(=O)OC)[C@H]2C(=O)N(C)C(=O)[C@@H]12	.	-2	.	0.5	17	23	1.9	3%	1.2	.

High-throughput results from PubChem BioAssay.

This is a subset, so the mix of outcomes need not match the whole.
